CSC inhib: blocks cancer stem cells. cancer stem cell-like cells viability, luminescence. inhibition, % at 7.5 µM. 1.1% of 300,000 active. AID 2717;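 active = mean at 75% or more and at least half the replicates too; inconclusive = mean and replicates disagree; tested in HMLE shEcad cells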;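 note: 0% = median of negative and 100% = median of positive control wells; the first replicate is given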
PABP polyA inh: blocks human PABP binding to poly(A) RNA | P11940 | fluorescence polarization | inhibition, % at 35 µM | 1% of 290,000 active | AID 2014;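 active = 50% or more with normal probe brightness, or confirmed in later tests; inconclusive = above 50% with abnormal brightness, or retests that disagree; inactive = below 50% or failed in later tests; about a fifth of its hits are not listed in these tables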;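 note: calls also rest on retests at 20 µM and on dose response follow-up; controls were probe without protein and protein plus probe with vehicle; some compounds called inactive have numbers as strong as hits; many hits fall short of the cut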
Target sequence (P11940 whole entry, looked up): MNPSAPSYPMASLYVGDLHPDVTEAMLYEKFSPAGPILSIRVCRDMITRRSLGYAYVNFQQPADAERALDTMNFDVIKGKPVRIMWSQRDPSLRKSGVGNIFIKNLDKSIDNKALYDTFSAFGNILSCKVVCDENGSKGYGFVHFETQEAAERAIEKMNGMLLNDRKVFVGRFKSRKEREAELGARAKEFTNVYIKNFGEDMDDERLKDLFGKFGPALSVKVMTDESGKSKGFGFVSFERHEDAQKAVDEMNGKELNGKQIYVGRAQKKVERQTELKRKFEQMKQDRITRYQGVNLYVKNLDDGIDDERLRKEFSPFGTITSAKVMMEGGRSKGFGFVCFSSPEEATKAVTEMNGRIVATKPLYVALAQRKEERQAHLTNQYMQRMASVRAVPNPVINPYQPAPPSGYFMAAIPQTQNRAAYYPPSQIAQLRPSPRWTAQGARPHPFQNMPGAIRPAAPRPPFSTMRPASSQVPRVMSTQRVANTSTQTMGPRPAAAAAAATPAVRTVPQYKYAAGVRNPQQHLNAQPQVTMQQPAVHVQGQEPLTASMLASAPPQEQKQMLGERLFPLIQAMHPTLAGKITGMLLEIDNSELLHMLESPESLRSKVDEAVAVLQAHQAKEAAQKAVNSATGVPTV
eIF4H FP inh: inhibitors of RNA binding by human eIF4H; 0.94% of 290,000 active; AID 2012; eIF4H fluorescence polarization binding assay; Q15056; inhibition, % at 35 µM;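 active = 50% or more with normal probe brightness, or confirmed in later tests; inconclusive = above 50% with abnormal brightness, or retests that disagree; inactive = below 50% or failed in later tests; about a fifth of its hits are not listed in these tables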;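 note: calls also rest on retests at 20 µM and on dose response follow-up; 0% = protein and probe with vehicle and 100% = probe without protein; strong numbers were not always called active; many hits fall short of the cut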
HIV Env fusion: blocks HIV Env-driven cell-cell fusion; HeLa-JRFL Env/CEM21 cell fusion, luciferase; inhibition, % at 12.3 µM; 1.1% of 360,000 active; AID 651610;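 active = mean replicate inhibition score of at least 50 and every replicate individually at or above 50; inconclusive = only one of the two criteria met; inactive = mean below 50 and not all replicates reaching 50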;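 note: 0% = plate neutral controls and 100% = maraviroc near 300 nM; one replicate is shown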
Yeast UUG start: yeast start codon fidelity modulation; S. cerevisiae UUG-firefly luciferase reporter, luminescence/redox ratio; activity score, % at 18.7 µM; 0.13% of 350,000 active; AID 602363;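 active = replicate mean at a twofold rise or more, about +100% in these data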;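 note: firefly luciferase made from a UUG start codon reports start codon fidelity; reporter light over untreated wells divided by growth signal over untreated wells; some hits fall short of that in this replicate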
MT1-MMP act inh: MT1-MMP (human) activation inhibition | P50281 | HT1080 RFP-PRO-GFP cells, GFP/RFP ratio fluorescence, overnight; percent of plate control window, DMSO zero | GFP/RFP ratio change, % at 20 µM | 0.061% of 360,000 active | AID 651647;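 active = GFP/RFP ratio change of at least 30% with cell ATP level not reduced by more than half and red fluorescence within 50% of control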; note: strong numbers were not always called active
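Read-out: GFP/RFP fluorescence ratio; Test system: RFP-PRO-GFP reporter HT1080 cells; Compound dosing: single-point 20 µM compound, 1% DMSO; Times: overnight compound exposure at 37 °C.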
Rce1 inh: inhibitors of yeast Ras-converting enzyme; AID 2563; 0.27% of 290,000 active; yeast membranes, quenched prenylated peptide cleavage fluorescence; calls only; Q03530;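 active = fall in fluorescence gain of 50% or more versus controls, with final raw signal at or below 3038400; inconclusive = same 50% fall but final raw signal above 3038400; inactive = fall in fluorescence gain under 50%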;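 note: plate controls were neutral control wells for no effect and wells lacking membranes for full effect; tested at 10 µM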
Target sequence (Q03530 whole entry, looked up): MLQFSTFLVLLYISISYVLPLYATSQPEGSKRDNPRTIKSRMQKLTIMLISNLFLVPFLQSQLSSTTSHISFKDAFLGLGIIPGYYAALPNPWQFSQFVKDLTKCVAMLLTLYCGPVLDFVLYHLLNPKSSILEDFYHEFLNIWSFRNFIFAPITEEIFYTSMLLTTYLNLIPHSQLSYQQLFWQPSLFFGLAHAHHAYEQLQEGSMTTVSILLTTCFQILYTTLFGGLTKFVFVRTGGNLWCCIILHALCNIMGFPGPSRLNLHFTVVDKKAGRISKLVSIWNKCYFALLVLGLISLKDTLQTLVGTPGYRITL
eIF4H FP inh retest: further read-out of eIF4H FP inh, marked with its call; inhibition, %; compound at 20 µM; confirmation average;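 mean of two retest wells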
PABP polyA inh retest: also measured in PABP polyA inh; calls as there; inhibition, %; compound at 20 µM; confirmation repeats;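 mean of two retest wells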
MT1-MMP act inh RFP: also measured in MT1-MMP act inh; calls as there; RFP signal change, %; measured here: RFP expression control read;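 0 = vehicle wells; hits needed this value within 50% of zero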
An asterisk follows results filed as active; i = inactive; ? = inconclusive; nt = not tested or not shown.

SMILES	CSC inhib	PABP polyA inh	eIF4H FP inh	HIV Env fusion	Yeast UUG start	MT1-MMP act inh	MT1-MMP act inh RFP	Rce1 inh	others
CC(=O)O/N=C(/c1nonc1N)N(C)C	5	-5	-6	-5	nt	-1	5	i
CCc1cc(=O)oc2cc(OC(C)C(=O)NCC(O)c3ccccc3)c(Cl)cc12 (stereo not given)	-15	-5	-12	9	-3	-5	4	i
CN=C1SC(CC(=O)Nc2cccc(C(F)(F)F)c2)C(=O)N1C (stereo not given)	nt	-4	-2	-32	-3	-3	-5	i
Cc1csc2nc(CNC(=O)CCC(=O)O)cn12	-13	5	0	-54	-14	-4	2	i
COc1ccc(NC(=O)C(=O)NCCN2CCN(C(=O)C(c3ccccc3)c3ccccc3)CC2)cc1	-14	-11	-3	-61	-15	-1	2	i
CCOc1ccccc1NC(=O)NNC(=O)CCc1ccc(OC)cc1	-2	16	-3	28	-7	-9	0	i
C/C(=N\N=C(/C)c1cccc(N)c1)c1cccc(N)c1	-9	nt	nt	-15	-15	4	-9	i
CCOc1ccc(S(=O)(=O)N2CCCC(C(=O)N3CCC(C(N)=O)CC3)C2)cc1Cl (stereo not given)	-5	-7	-8	2	-26	-2	-4	nt
COc1ccccc1CC(=O)NC1CC1	64	14	-3	-10	5	2	5	i
CC(C)CN(C(=O)CSc1nnc(-c2cccs2)n1N)c1c(N)n(Cc2ccccc2)c(=O)[nH]c1=O	-6	nt	nt	-5	nt	0	0	i
CCc1c(C)nc2ncnn2c1N1CCCC(C(=O)NCc2ccc3c(c2)OCO3)C1 (stereo not given)	-7	6	-6	14	-11	3	1	i
CCOC(=O)c1ccc(C(=S)N2CCCC2)cc1	nt	3	1	3	-20	-2	3	i
CCOC(=O)c1sc(/N=C/c2c(C)[nH]n(-c3ccccc3)c2=O)c(C#N)c1C	-3	-12	2	nt	nt	nt	nt	i
CC(C)OC(=O)CSc1nc2ncc(Cl)cc2[nH]1	-3	12	-1	-69	-18	-8	2	i
O=C(COc1ccc(S(=O)(=O)N2CCOCC2)cc1)NCc1ccco1	-8	-2	8	nt	-11	-1	4	i
Cc1ccc(S(=O)(=O)NCCC(=O)NCCc2ccc(S(N)(=O)=O)cc2)cc1C	-10	nt	nt	nt	-10	17	-2	nt
COCCCNC(=O)CN1C(=O)c2ccccc2C1=O	7	10	1	-31	nt	0	-2	i
O=C(Nc1ccccc1)Nc1nccs1	-13	-2	-2	-63	-12	7	-2	i
Nc1c(-c2ccsc2)cnc2ncnn12	-7	18	7	8	nt	-2	3	i
Cc1cccc(NC(=O)c2sc3nc(C)nc(N4CCOCC4)c3c2C)c1	nt	nt	nt	2	-14	1	0	nt
C=CCOC(=O)C1=C(C)NC(SCC(=O)N(CC)CC)=C(C#N)C1c1ccccc1 (stereo not given)	52	1	5	-37	16	4	-1	i
CCOc1ccc(Cn2c(O)cc(=O)[nH]c2=O)cc1	-6	1	?	nt	-12	-12	5	i
O=C(CCCCCn1c(=S)[nH]c2cc3c(cc2c1=O)OCO3)N1CCN(C2CCCCC2)CC1	13	-14	-4	-15	-20	2	-8	i
Cc1cccc(NC2=NC3(CCCCC3)N=C(N)N2)c1	1	nt	nt	-38	-15	0	5	nt
Cc1c(Br)c([N+](=O)[O-])nn1CC(=O)Nc1nccs1	-1	-9	-11	3	nt	7	5	i
Cc1cc(N)ccc1NC(=O)c1ccccc1	-7	-5	-9	-17	-16	5	8	nt
CCc1nc2ccc(C(=O)NCc3cccs3)cn2c1N(CC)CCOC	nt	nt	nt	-7	-13	-1	-1	nt
Cc1cc(Oc2ccc(=O)n(C)n2)nc(SCCOc2ccccc2)n1	-11	-4	-2	3	nt	1	-1	i
COc1ccc(NC(=O)COc2cc(O)c3c(c2)OC(C)(C)CC3=O)cc1	-6	6	12	nt	-18	-1	-7	i
COc1ccc(C(=O)OC(C(=O)c2ccc(C)cc2)c2ccccc2)cc1 (stereo not given)	-10	6	-13	-1	-14	-9	-7	i
CCCNS(=O)(=O)c1ccc(CCC(=O)NCc2ccc3c(c2)OCO3)cc1	9	-8	-4	33	-15	-1	0	i
CCCc1cc(C(=O)N2CCCC(N3CCN(c4ccccc4F)CC3)C2)n(C)n1 (stereo not given)	5	-5	16	9	-8	-2	-4	i
C=CC[C@H](CC(=O)N(CCO)Cc1ccccc1)C(=O)N[C@@H](C)COC(=O)[C@@H](CC=C)Cc1ccc(F)cc1	0	nt	nt	5	12	5	-9	nt
O=C(Nc1ccn(CCCNCC2CCCO2)c(=O)n1)OCc1ccccc1 (stereo not given)	nt	nt	nt	-12	-13	1	6	nt
Cc1ccc2[nH]c(=O)c(CN(C(=O)c3cccc([N+](=O)[O-])c3)C(C)(C)C)cc2c1	3	-2	-1	19	-24	-3	-5	i
CCOC(=O)c1c(C)[nH]c(C)c1S(=O)(=O)N(C)CC(=O)N(C)Cc1ccccc1	4	10	-7	9	nt	-2	-1	i
COc1ccc(CCN2CC(C(=O)N3CCCCCC3)CCC2=O)cc1 (stereo not given)	-12	-13	-10	-16	-10	1	2	nt
Nc1nc(SCc2ccccc2)ns1	5	3	-1	nt	-19	5	0	i
CCN(C[C@H]1N[C@@](CC)(C(=O)OC)[C@H]2C(=O)N(Cc3ccccc3)C(=O)[C@@H]12)S(=O)(=O)c1ccc(OC)cc1	-10	nt	nt	78*	15	-1	-2	nt
Cc1ccc(NC(=O)c2nc[nH]c2C(=O)N2CCN(c3ccccc3)CC2)cc1	16	1	-7	-16	-15	2	2	i
CCCCN(CCCC)CCNC(=O)c1ccc2nc(-c3ccccc3NC(C)=O)c(=O)[nH]c2c1	1	-9	-4	-1	-10	3	2	i
COc1cccc(CN(CC2CCCO2)S(=O)(=O)c2ccc(S(=O)(=O)NCC3CCCO3)cc2)c1OC (stereo not given)	-12	3	1	nt	4	2	-1	i
Cc1ccc(NC(=O)Cn2cnc3c(nnn3Cc3ccc(F)cc3)c2=O)cc1	-4	6	-5	-3	nt	1	2	nt
O=S(=O)(NCCN1CCCC1)c1cccc2cccnc12	-10	8	-5	10	0	-1	4	i
Cc1nnc2ccc(-c3cccc(NS(=O)(=O)c4ccccc4[N+](=O)[O-])c3)nn12	24	nt	nt	-4	-23	6	6	i
Cc1ccc(C(=O)CCC(=O)OCc2nnc(-c3ccccc3)o2)cc1	1	nt	nt	nt	-3	2	5	i
CCN1C(=O)/C(=C/c2cc(C)n(C)c2C)SC1=Nc1ccc(OC)cc1	38	1	-8	nt	-16	1	-2	i
CC(C)(C#N)NC(=O)c1ccco1	-3	-6	0	nt	-6	0	3	i
CCOC(=O)N1CCN(C(=O)c2c(-c3ccccc3)noc2C)CC1	4	0	-2	-15	1	5	0	i
COc1ccc(C)cc1S(=O)(=O)N1CCC(C)CC1	-15	-3	5	-13	5	4	4	i
CC1(C)CC(=O)C=C(Nc2ccc(Br)cc2F)C1	2	1	10	15	-26	-4	-3	i
O=C(Nn1cc(C(=O)Nc2ccc(F)cc2F)c2ccccc2c1=O)c1cnccn1	-3	-2	0	4	1	4	-1	i
Cc1ccc(NC(=O)C(C)SCc2nc3sc4c(c3c(=O)[nH]2)CCCC4)nc1 (stereo not given)	-6	7	26	-7	-6	-17	1	i
Cc1cc(C(=O)Cn2nc(C(=O)O)c3ccccc3c2=O)c(C)n1-c1cccc(C(F)(F)F)c1	13	-12	-9	7	-17	5	4	i
CCOc1c(Br)cc(CNc2ccc(N3CCOCC3)cc2)cc1OC	-5	-12	-4	13	-18	0	-8	i
CSc1nc2sc(-c3ccccc3)cc2c(=O)n1N	31	-6	-6	nt	7	4	14	i
COc1ccc(Cl)cc1NC(=O)COC(=O)CCc1cc(OC)c(OC)c(OC)c1	-4	10	94	2	-14	1	2	i	eIF4H FP inh retest=-1;PABP polyA inh retest=0
Cc1ccc(S(=O)(=O)NCC(=O)N(c2ccccc2)C(C(=O)NCc2ccccc2)c2ccco2)cc1 (stereo not given)	9	7	-14	nt	3	0	-4	i
CCN(C(=S)NCc1ccccc1)c1ccccc1	-14	1	14	-6	nt	4	5	i
O=C(Nc1nnc(-c2ccc(Cl)cc2)o1)c1cccc(N2C(=O)CCC2=O)c1	5	2	10	7	nt	5	7	i
CCOc1ccc(CN(C)CC(O)COC(c2ccc(OC)cc2)c2ccc(OC)cc2)cc1 (stereo not given)	-4	-3	10	4	-26	-1	-3	i
O=[N+]([O-])c1cc(C(F)(F)F)cc([N+](=O)[O-])c1N1CCCNCC1	-16	-5	1	2	2	2	0	i
O=C(c1cccc(-c2ccc(O)cc2)c1)N1CCOCC1	-5	-10	-17	-29	-11	2	-3	nt

16 entries from above, sorted by length of the SMILES, largest number first:
SMILES	CSC inhib	PABP polyA inh	eIF4H FP inh	HIV Env fusion	Yeast UUG start	MT1-MMP act inh	MT1-MMP act inh RFP	Rce1 inh	others
Cc1ccc(S(=O)(=O)NCC(=O)N(c2ccccc2)C(C(=O)NCc2ccccc2)c2ccco2)cc1 (stereo not given)	9	7	-14	nt	3	0	-4	i
Cc1cc(C(=O)Cn2nc(C(=O)O)c3ccccc3c2=O)c(C)n1-c1cccc(C(F)(F)F)c1	13	-12	-9	7	-17	5	4	i
O=[N+]([O-])c1cc(C(F)(F)F)cc([N+](=O)[O-])c1N1CCCNCC1	-16	-5	1	2	2	2	0	i
CCOc1ccc(CN(C)CC(O)COC(c2ccc(OC)cc2)c2ccc(OC)cc2)cc1 (stereo not given)	-4	-3	10	4	-26	-1	-3	i
O=C(Nc1nnc(-c2ccc(Cl)cc2)o1)c1cccc(N2C(=O)CCC2=O)c1	5	2	10	7	nt	5	7	i
O=C(Nn1cc(C(=O)Nc2ccc(F)cc2F)c2ccccc2c1=O)c1cnccn1	-3	-2	0	4	1	4	-1	i
COc1ccc(Cl)cc1NC(=O)COC(=O)CCc1cc(OC)c(OC)c(OC)c1	-4	10	94	2	-14	1	2	i	eIF4H FP inh retest=-1;PABP polyA inh retest=0
CCN1C(=O)/C(=C/c2cc(C)n(C)c2C)SC1=Nc1ccc(OC)cc1	38	1	-8	nt	-16	1	-2	i
Cc1ccc(C(=O)CCC(=O)OCc2nnc(-c3ccccc3)o2)cc1	1	nt	nt	nt	-3	2	5	i
CCOC(=O)N1CCN(C(=O)c2c(-c3ccccc3)noc2C)CC1	4	0	-2	-15	1	5	0	i
CCOc1c(Br)cc(CNc2ccc(N3CCOCC3)cc2)cc1OC	-5	-12	-4	13	-18	0	-8	i
O=C(c1cccc(-c2ccc(O)cc2)c1)N1CCOCC1	-5	-10	-17	-29	-11	2	-3	nt
CC1(C)CC(=O)C=C(Nc2ccc(Br)cc2F)C1	2	1	10	15	-26	-4	-3	i
CSc1nc2sc(-c3ccccc3)cc2c(=O)n1N	31	-6	-6	nt	7	4	14	i
CCN(C(=S)NCc1ccccc1)c1ccccc1	-14	1	14	-6	nt	4	5	i
CC(C)(C#N)NC(=O)c1ccco1	-3	-6	0	nt	-6	0	3	i

From PubChem
